AF4-AF9 inh – MLL-AF4/AF9 protein interaction inhibition; AlphaScreen, biotin-AF4 peptide binding to FLAG-AF9; AID 651704; inhibition, % at 10 µM; P42568; 350,000 tested, 0.47% active;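 active = every replicate reaching a set inhibition limit, whatever the replicate mean, cut at about 25% in these data; inconclusive = mean inhibition reaches that limit but some replicates miss it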;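 also: 0% = plate neutral control median and 100% = total signal loss; the record names both 10 and 1 µM as test concentration; the first replicate is given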
Target sequence (P42568 whole entry, looked up): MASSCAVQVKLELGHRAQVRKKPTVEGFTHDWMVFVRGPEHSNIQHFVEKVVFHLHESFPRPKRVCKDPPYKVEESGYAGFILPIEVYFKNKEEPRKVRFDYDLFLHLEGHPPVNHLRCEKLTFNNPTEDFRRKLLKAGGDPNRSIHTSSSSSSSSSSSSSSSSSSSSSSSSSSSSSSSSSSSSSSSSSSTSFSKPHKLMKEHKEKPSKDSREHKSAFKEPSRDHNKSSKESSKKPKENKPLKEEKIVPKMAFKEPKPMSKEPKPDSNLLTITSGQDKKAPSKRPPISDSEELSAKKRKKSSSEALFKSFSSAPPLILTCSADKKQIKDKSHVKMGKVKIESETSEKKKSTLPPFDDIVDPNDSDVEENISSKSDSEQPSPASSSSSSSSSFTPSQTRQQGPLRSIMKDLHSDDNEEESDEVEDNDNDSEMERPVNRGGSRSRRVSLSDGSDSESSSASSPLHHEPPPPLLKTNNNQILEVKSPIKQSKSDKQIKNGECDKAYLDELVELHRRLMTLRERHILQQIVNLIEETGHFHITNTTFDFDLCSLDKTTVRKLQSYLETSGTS
UCH37 DUB inh – inhibitors of human deubiquitinating enzyme UCH37; inhibition, % (no concentration beside the values); purified proteasome/UCH37, Ub-AMC cleavage fluorescence; 330,000 tested, 0.33% active; Q9Y5K5; AID 588478;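 active = mean of two replicates above 20%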;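 also: 0% = compound-free wells with enzyme and 100% = wells lacking proteasome; stock transfer was 100 nL into about 20 µL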
Target sequence (Q9Y5K5 whole entry, looked up): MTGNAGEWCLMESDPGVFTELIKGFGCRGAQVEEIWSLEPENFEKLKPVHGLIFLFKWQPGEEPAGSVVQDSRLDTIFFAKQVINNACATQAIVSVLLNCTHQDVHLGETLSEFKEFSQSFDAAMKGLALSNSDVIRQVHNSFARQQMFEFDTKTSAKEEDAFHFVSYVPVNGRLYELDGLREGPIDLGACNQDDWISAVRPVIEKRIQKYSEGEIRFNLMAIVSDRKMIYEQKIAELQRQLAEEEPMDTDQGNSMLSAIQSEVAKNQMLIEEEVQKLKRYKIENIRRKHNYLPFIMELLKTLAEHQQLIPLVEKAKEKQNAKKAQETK
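system = Proteasome-associated human UCH37 deubiquitinase | amount = 0.15 nM proteasome as dispensed | medium = pH 7.4 Tris-HCl (50 mM) with ovalbumin, ATP-MgCl2, DTT | incubation = 30 min preincubation with enzyme, 25 min cleavage at room temperature | detection = AMC fluorescence 355/460 nm | read-out basis = percent inhibition | controls = no-proteasome and no-compound wells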
RanGTP-Impb inh – inhibitors of RanGTP-importin-beta interaction, primary screen, biochemical, FRET, CFP-Ran, YFP-importin-beta, homogeneous; cell-free CFP-Ran/YFP-importin-beta FRET ratio; inhibition, % (test concentration not listed); 300,000 tested, 1.1% active; AID 2216;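 active = most replicates above 15%; inconclusive = exactly half above 15%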;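 also: 0% = DMSO wells and 100% = Ran loaded with GDP instead of GTP; wells of about 40 µL received 100 nL stock; the first replicate is given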
HNF4A DNA FP – change in binding of human HNF4 alpha to DNA. HNF4a-FITC DNA binding, fluorescence polarization, 1 h. 360,000 tested, 0.3% active. activity change, % at 10 µM. AID 1224865. P41235; in the data active = activity change above about 30%, passing the limit was not always enough;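 also: controls were the assay level and a saturating level of protein; the project sought stronger binding though the title names inhibitors; some compounds called inactive have numbers as strong as hits; positive values seem to mean higher polarization but the record does not say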
FGF22 binding – binders of recombinant human FGF22 by thermal shift; SYPRO orange fluorescence; percent of sucrose octasulfate shift, DMSO zero; 340,000 tested, 1.5% active; calls only at 9.99 µM;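 active = melting point raised past a set limit in the mean and every replicate; inconclusive = no clear call; three in four hits are not shown here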
Target sequence (Q9HCT0 whole entry, looked up): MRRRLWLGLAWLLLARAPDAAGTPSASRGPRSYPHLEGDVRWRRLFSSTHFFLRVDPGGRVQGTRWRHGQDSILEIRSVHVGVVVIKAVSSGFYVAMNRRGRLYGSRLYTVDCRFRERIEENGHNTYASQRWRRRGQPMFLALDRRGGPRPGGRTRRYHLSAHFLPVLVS
E coli growth – blocks Escherichia coli growth | OD600, 23 h; stronger effect = lower value | AID 1053175 | 330,000 tested, 0.21% active | OD600 absorbance (no concentration beside the values);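 active = OD600 absorbance below the run mean of sample wells minus 3.6 SD, in any replicate, cut at about 0.56 in these data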;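 also: stock transfer was 300 nL into about 60 µL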
Vif A3G – inhibitors of Vif binding to APOBEC3G peptide, primary screen, biochemical, TR-FRET, GST-Vif 1-94, biotin-A3G peptide, dose response retest (AID 1117319). TR-FRET GST-Vif / biotin-A3G peptide binding; higher % means a stronger effect; test concentration not given here; strong numbers were not always called active. inhibition, %, or IC50 in µM where a hit was titrated. 260,000 tested, 0.57% active;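 active = above the screen mean plus three standard deviations and confirmed in dose response; inconclusive = results disagree or hit not tested in dose response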;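 also: Vif residues 1-94 fused to GST binding biotinylated APOBEC3G peptide 110-148; 0% = full assay without inhibitor and 100% = GST in place of GST-Vif; retest series ran down from 100 µM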
* = called active by the depositor; i = inactive; ? = inconclusive; nt = no result given; & = joins results of further samples.

| molecule | AF4-AF9 inh | UCH37 DUB inh | RanGTP-Impb inh | HNF4A DNA FP | FGF22 binding | E coli growth | Vif A3G |
| --- | --- | --- | --- | --- | --- | --- | --- |
| CC1CC(C)CN(S(=O)(=O)c2ccc3c(c2)oc(=O)n3CC(=O)N(C)Cc2ccccc2)C1 (stereo not given) | 4.0 | 8.6 | 0.9 | 5.4 | i | 0.72 | nt |
| COc1ccc2nc3ccccc3nc2c1NC(=O)c1ccc(Br)cc1 | 1.5 | 6.9 | -7.1 | -7.2 | i | 0.67 | -6% |
| Fc1ccc(/C=N/Nc2nc(-c3cccnc3)nc3ccccc23)cc1 | -2.9 | nt | 2.5 | 6.5 | i | nt | 7% |
| COc1ccc(CN2CCN(C(=O)C3CCN(S(=O)(=O)c4cccs4)CC3)CC2)c(OC)c1OC | 0.6 | 1.2 | 3.9 | 0.9 | i | 0.69 | -5% |
| COc1ccccc1C(=O)Nc1ccccc1C(=O)N1CCCC1 | nt | 2.0 | 2.0 | 2.0 | nt | 0.8 | -1% |
| CC(=O)Nc1ccc(Nc2nnc(-c3ccc(C)c(S(N)(=O)=O)c3)c3ccccc23)cc1 | 0.2 | 11 | -4.1 | 0.6 | i | 0.67 | -9% |
| COC(=O)c1cc(NC2c3ccccc3C(=O)N2CCN2CCOCC2)cc(C(=O)OC)c1 (stereo not given) | -6.7 | -3.5 | 0.9 | -1.5 | i | 0.71 | -3% |
| COc1ccc(C)cc1NC(=O)CSc1nc2ccccc2nc1N1CCCC1 | -1.6 | 2.1 | 0.0 | -4.5 | i | 0.73 | nt |
| O=C(NC1CCCCC1)C(c1cccnc1)N(C(=O)c1ccc(Cl)nc1)C1CCCCC1 (stereo not given) | 1.1 | 3.4 | 2.7 | 3.1 | i | 0.7 | -11% |
| CCOc1ccc(NS(=O)(=O)c2cc(NC(=O)CCS(=O)(=O)c3ccc(C)cc3)ccc2OC)cc1 | nt | 1.3 | -2.3 | -2.9 | nt | 0.67 | 31% |
| CC1(C)Cc2ccccc2-c2nnc(C(F)(F)F)n21 | -4.2 | 3.7 | -0.9 | 0.8 | i | 0.66 | 4% |
| COc1ccccc1NC(=O)C1CCN(S(=O)(=O)c2cccc3nonc23)CC1 | -0.1 | 3.9 | 1.9 | 0.6 | i | 0.71 | nt |
| CCOC(=O)[C@H]1[C@H]2COc3ccc(Br)cc3[C@@H]2N2C(=O)c3cc(Br)ccc3NC(=O)[C@@]12C | 4.2 | 0.3 | nt | 3.2 | i | nt | nt |
| CCc1ccc(C(=O)COC(=O)c2cc([N+](=O)[O-])ccc2NCCO)cc1 | 1.9 | 1.8 | -2.5 | 0.8 | i | 0.69 | 0% |
| CCN(C(=O)c1cccc(Br)c1)c1ccccc1 | -0.6 | 1.4 | 0.6 | 0.8 | i | 0.69 | -4% |
| C=CC[C@@H](CC(=O)NCCO)C(=O)N[C@@H](COC(=O)[C@@H](CC=C)CC(=O)OC(C)(C)C)Cc1c[nH]c2ccccc12 | -0.6 | 23* | nt | -1.9 | i | nt | nt |
| O=C(NCc1cccc(C(F)(F)F)c1)c1csc([C@H]2C[C@H](O)[C@@H](CO)O2)n1 | -0.7 | nt | nt | -3.5 | i | nt | nt |
| COc1ccc(NC(=O)C2Cc3ccccc3C(=O)O2)cc1 (stereo not given) | -0.5 | 3.0 | -2.0 | 1.6 | i | 0.7 | nt |
| CCC(=O)Nc1ccc(N/C(N)=N/c2nc(C)cc(C)n2)cc1 | -2.3 | 1.6 | 17* | 3.0 | i | 0.64 | nt |
| CCOc1ccc(-n2c(C)c(C(=O)OC)c3cc(O)ccc32)cc1 | -5.5 | 5.8 | -0.7 | 0.1 | i | 0.71 | nt |
| O=C(OCCN1C(=O)c2ccccc2C1=O)c1ccc(S(=O)(=O)N2CCCCCC2)cc1 | nt | 0.6 | 0.6 | 1.3 | nt | 0.72 | 2% |
| COc1ccc(N2CCN(C(=O)COC(=O)COc3cccc(C(F)(F)F)c3)CC2)cc1 | -4.7 | 0.6 | nt | -0.9 | i | 0.7 | -5% |
| CCOC(=O)COc1ccc2nsnc2c1Cl | nt | -120 | 5.4 | 1.9 | nt | 0.75 | -11% |
| CCOC(=O)c1ccc(NC(=O)CCc2nc(-c3ccc(C)cc3)no2)cc1 | nt | 3.0 | -4.4 | -2.9 | nt | 0.71 | ? |
| COCCCNS(=O)(=O)c1cccc(S(=O)(=O)c2cccc(S(=O)(=O)NCCCOC)c2)c1 | -1.2 | 1.0 | -0.9 | -2.8 | i | 0.61 | 2% |
| COc1cccc(-c2cnc3cccnn23)c1 | -3.0 | nt | nt | 5.0 | i | nt | nt |
| C#CCOCCOCCOCCNc1nc(N2CCN(C(=O)Cn3cc(CCCCN)nn3)CC2)nc(N2CCN(C(=O)Cn3cc(CCCCN)nn3)CC2)n1 | -4.9 | 5.8 | -1.4 | 3.9 | i | 0.81 | -4% |
| CC(C)C(C)NC(=O)CSc1nnc(-c2c[nH]c3ccccc23)o1 (stereo not given) | -2.0 | -0.4 | 0.4 | 0.3 | i | 0.69 | 19% |
| C=CCn1c(COc2ccc(Cl)cc2)nnc1SCC(=O)N/N=C/c1cccc(O)c1 | nt | nt | 0.5 | 0.2 | nt | nt | 7% |
| COc1ccc(C(=O)Cn2cnc3ccc(Cl)cc3c2=O)cc1F | -3.2 | 2.4 | -4.7 | 5.1 | i | 0.68 | -17% |
| O=S(=O)(c1cccs1)N1CCN(c2ccccc2F)CC1 | 0.7 | 0.7 | 2.3 | 4.0 | i | 0.68 | nt |
| CN(C(=O)c1cccc(NC(=O)Cc2cccc([N+](=O)[O-])c2)c1)C1CC1 | -0.8 | 2.1 | nt | -1.6 | i | 0.68 | nt |
| CCCCn1c(N)c(N(CCOC)C(=O)CCNC(=O)NC23CC4CC(CC(C4)C2)C3)c(=O)[nH]c1=O | -2.7 | -0.8 | nt | 0.2 | i | 0.7 | nt |
| Cc1ccc(-c2nn(-c3ccccc3)cc2/C=C/C(=O)Nc2cccc(S(N)(=O)=O)c2)cc1 | -3.1 | -115 | 2.3 | 5.8 | i | 0.72 | 3% |
| COc1ccc(OC)c(NC(=O)C2CCCN(S(=O)(=O)c3cccc4nonc34)C2)c1 (stereo not given) | 2.8 | -0.8 | ? | -2.4 | i | 0.71 | 16% |
| CC(Sc1nnc(-c2ccccc2F)n1C)C(=O)Nc1ccc(N2CCOCC2)cc1 (stereo not given) | -2.7 | nt | nt | 1.9 | i | nt | 1% |
| COCCCN1C(=O)C(CC(=O)NCCc2ccccn2)CC(C(=O)N(C(C)C)C(C)C)=C1C (stereo not given) | -3.3 | nt | nt | 2.4 | i | nt | nt |
| Cc1ccccc1NC(=O)NCc1ccccn1 | 5.3 | 2.4 | 3.1 | 0.1 | i | 0.67 | nt |
| Cn1cnnc1SCC(=O)c1ccc2c(c1)OCCO2 | nt | 1.3 | 6.1 | 4.9 | nt | 0.71 | -2% |
| O=C(COc1ccccc1O)NC1CCCC1 | -0.6 | 3.1 | nt | -0.8 | nt | 0.68 | -1% |
| Cc1ccc(NC(=O)CN2C(=O)S/C(=C\c3ccc(OCC(=O)O)c(Br)c3)C2=O)cc1 | 1.2 | -2.4 | -3.0 | -4.0 | i | 0.69 | nt |
| CCOc1ccc(CN2CCNC(=O)C2CC(=O)OC)cc1 (stereo not given) | -11 | 5.2 | 3.2 | 2.9 | i | 0.74 | 5% |
| CC(=O)Nc1cc(C(C)C)c(O)c(C(C)C)c1 | nt | 0.3 | 1.6 | -0.4 | nt | 0.71 | -3% |
| COc1ccc(-c2cc(C(=O)N3CCN(c4ccccn4)CC3)c3ccccc3n2)cc1 | nt | -46 | 3.9 | 6.4 | nt | 0.75 | 0% |
| O=C(CCNC(=O)c1ccccc1)N/N=C/c1ccc([N+](=O)[O-])cc1 | -4.2 | nt | nt | -0.9 | i | nt | 13% |
| Cc1ccc(/C=C(\C#N)C(=O)NCCN2CCOCC2)cc1 | 1.6 | 1.8 | ? | -1.1 | i | 0.7 | 5% |
| Cc1cc(/C=C2/NC(=S)NC2=O)c(C)n1-c1cccnc1 | 0.0 | 3.5 | 4.9 | 49* | i | nt | 5% |
| CNC(=O)c1c(O)c2cccc3c2n(c1=O)CC3 | nt | -2.4 | -2.5 | -0.9 | nt | 0.75 | nt |
| COc1ccc(NC(=O)N2CCC(c3nc4ccccc4[nH]3)CC2)cc1 | -1.1 | 0.0 | -2.1 | 0.1 | i | 0.63 | nt |
| CCCC[C@H]1COCCS(=O)(=O)N1Cc1cccc(Cl)c1 | -3.9 | 3.4 | 1.8 | -1.7 | i | nt | nt |
| CCCCn1nnnc1C(c1cc2ccccc2o1)N1CCCC1 (stereo not given) | -1.0 | nt | nt | 2.9 | i | nt | nt |
| O=C1C=C(Nc2ccc(Cl)cc2)CC(c2ccco2)C1 (stereo not given) | nt | 0.4 | 29* | 0.9 | nt | 0.71 | 18% |
| c1coc(-c2ccnc3nc(-n4cccc4)nn23)c1 | 1.7 | -6.4 | 0.5 | -4.3 | i | 0.66 | -4% |
| O=C(c1ccco1)N1N=C(c2ccc(Cl)cc2)CC1c1ccco1 (stereo not given) | 0.9 | -6.7 | -3.2 | 5.6 | i | 0.72 | nt |
| CCn1ccnc1CNC(=O)C1CCC(=O)N(Cc2ccccc2F)C1 (stereo not given) | -0.5 | 0.5 | 1.9 | -0.9 | i | 0.69 | 1% |
| O=C(CN1CCN(Cc2ccc3c(c2)OCO3)CC1)Nc1cc(S(=O)(=O)N2CCCC2)ccc1Cl | 4.4 | 2.1 | 13 | 0.7 | i | 0.7 | -4% |

(cont.)
| molecule | AF4-AF9 inh | UCH37 DUB inh | RanGTP-Impb inh | HNF4A DNA FP | FGF22 binding | E coli growth | Vif A3G |
| --- | --- | --- | --- | --- | --- | --- | --- |
| COc1ccc(CC2CCOC2=O)cc1 (stereo not given) | nt | 3.6 | 1.0 | 2.2 | nt | 0.65 | 5% |
| O=C(Cc1ccccc1)NCCSC1CCCCC1 | -15 | 5.6 | 2.6 | 0.6 | i | 0.69 | 3% |
| Cc1ccnc(NC(=O)CNC(=O)c2sc3ccccc3c2Cl)c1 | -1.3 | nt | 1.2 | -0.9 | i | nt | nt |
| COC(=O)c1c(-c2ccc(SC)cc2)sc2ccccc12 | -14 | -8.8 | nt | -4.4 | i | nt | nt |
| COC(=O)c1ccc(/C=C/C(=O)c2cccc(OC)c2)cc1 | -7.7 | 2.6 | -1.7 | 1.0 | i | 0.68 | -6% |
| CC(C)(C)OC(=O)NCC(=O)NCC(=O)OCc1ccccc1 | nt | 2.3 | 5.5 | 1.3 | nt | 0.75 | -5%&-5% |
| Cc1ccc(NC(=S)NCCN(C2CCCCC2)C2CCCC2)cc1 | 14 | 2.8 | ? | 1.9 | i | 0.62 | nt |
| CCC(C)NC(=O)C1CCCN1S(=O)(=O)c1ccc(Cl)cc1 (stereo not given) | -7.3 | 1.5 | -0.2 | -3.5 | i | 0.67 | ? |
| Cc1cccc(NS(=O)(=O)c2cccc(C(=O)N3CCCCCC3)c2)c1 | -0.7 | 1.7 | 5.4 | 2.9 | i | 0.62 | 0% |
| COc1cc(C(=O)NCCCc2ccccc2)cc(OC)c1OC | 0.8 | 1.4 | 4.1 | -2.6 | i | 0.7 | -7% |
| CC(CC(=O)N1CCc2ccccc21)n1cccn1 (stereo not given) | 1.0 | 2.1 | ? | -2.0 | i | 0.68 | nt |
| NC(=O)CS(=O)(=O)c1ccc(Cl)cc1 | 0.3 | 2.0 | -0.6 | -3.6 | nt | 0.63 | nt |

High-throughput results from PubChem.

Not all compounds are listed, so the mix of outcomes need not match the whole.
